High-throughput results as filed in PubChem BioAssay.
VDR inh: blocks the human vitamin D receptor; P11473; VDR-SRC2-3 peptide fluorescence polarization, 2 h; Potency, µM, inactives show max response, negative = inhibition, hits mostly inhibitors; hit rate 0.93% among 400,000; AID 504847; active = well fitted inhibition curve with a large enough effect; inconclusive = small, poorly fitted or top-dose-only effect, or another doubt; inactive = no such curve, though single readings can be large or run the other way; note: series mostly up to about 120 µM
Target sequence (P11473 whole entry, looked up): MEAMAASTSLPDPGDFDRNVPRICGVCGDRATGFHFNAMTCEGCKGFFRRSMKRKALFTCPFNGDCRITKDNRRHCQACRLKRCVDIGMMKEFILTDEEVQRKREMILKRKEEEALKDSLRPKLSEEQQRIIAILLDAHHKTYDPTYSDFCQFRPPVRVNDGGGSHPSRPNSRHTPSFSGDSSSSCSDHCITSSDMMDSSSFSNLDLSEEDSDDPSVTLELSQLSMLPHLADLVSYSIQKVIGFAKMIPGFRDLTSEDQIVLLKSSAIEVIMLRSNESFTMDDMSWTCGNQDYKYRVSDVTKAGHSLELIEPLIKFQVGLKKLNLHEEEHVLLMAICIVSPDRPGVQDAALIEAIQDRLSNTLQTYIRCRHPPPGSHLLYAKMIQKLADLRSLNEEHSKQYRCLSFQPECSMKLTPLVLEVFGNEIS
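Fluorescence polarization assay measuring small-molecule disruption of VDR binding to the coregulator peptide SRC2-3. Compounds were pin-transferred (23 nl) into the reagent mix and incubated 2 h at room temperature before reading.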
* = called active by the depositor; ? = inconclusive; & = joins results of further samples; [ ] = another dose, or the depositor's remark. % is set by controls: 0 for no effect and ±100 for the full control effect; potency is the fitted concentration of half-maximal effect. Some of the compounds tested; the hit share may differ from the screen's.

SMILES	VDR inh
COC(=O)c1ccc(Nc2cc(C)nc3nc(C)nn23)cc1	-13%
CCN1CCN(c2nnc(-n3cccc3C(=O)Nc3cccc(OC)c3)s2)CC1	0%
O=C(/C=C\c1cn(-c2ccccc2)nc1-c1ccc2c(c1)OCCO2)N1CCOCC1	-4%
COc1ccc(-c2nc3cc(C(C)C)ccc3o2)cc1NC(=O)c1ccc(C)c(Cl)c1	4%
Cc1cc(N=Nc2c(O)c3ccccc3[nH]c2=O)ccc1N=Nc1ccc(C(=O)N(C)C)cc1	-10%
CC(NS(=O)(=O)c1cc(C(F)(F)F)ccc1Cl)C(=O)N(C)C1CCN(C)CC1 (configuration not stated)	-6%
COC(=O)Nc1c(C(=O)OC)cc(OC)c(OC)c1OC	7%
Cc1ccc(S(=O)(=O)N(C)CCN(C)c2nc(-c3cccs3)nc3ccccc23)cc1	-20%
Cc1cc(C)c(NC(=O)CNC(=O)COC(=O)Cc2ccccc2C)c(C)c1	5%
O=c1c(-c2ccc(F)cc2)nc2cnc(Nc3ccccc3)nc2n1Cc1cccs1	6%
COc1ccc(S(=O)(=O)NCc2ccc(F)cc2)cc1OC	7%
Cc1ccc(C(=O)NCC(c2ccc(F)cc2)N2CCOCC2)cc1S(=O)(=O)N1CCOCC1 (configuration not stated)	9%
Cc1cccc(CNC(=O)c2ccc3oc(=O)n(Cc4ccccc4)c3c2)c1	1%
Cc1cccc(NC(=O)CN2C(=O)c3ccccc3C2=O)c1C	3%
COC(=O)CSc1nc(NC(C)C)nc(N2CCOCC2)n1	-10%
COc1ccc(N/C=C/C(=O)C(C)(C)C)cc1	-21%
COc1ccc(C(=O)COC(=O)CN2C(=O)NC(C)(C)C2=O)cc1OC	0%
Cc1ccc(CNC(=O)c2ccc3c(c2)NC(=O)C(N2CCOCC2)S3)cc1 (configuration not stated)	22%
COc1ccc(CNC(=O)Cn2c(=O)oc3ccccc32)cc1OC	-3%
COc1ccc(/C(C)=N/N=C(\C)c2ccc(OC)cc2OC)c(OC)c1	5%
CC(=O)N1CCN(C(=O)c2cc3c(s2)CCCC3)CC1	-2%
CC(OC(=O)c1cccnc1Cl)C(=O)Nc1ccc2c(c1)OCCO2 (configuration not stated)	-14%
CC(C)CCOc1ccc(C(=O)NNC(=O)CNC(=O)c2ccccc2F)cc1	-6%
COc1cccc(C(=O)NCCS(=O)(=O)N2CCc3ccccc3C2)c1	1%
O=C(O)c1ccccc1C(=O)NCCc1ccc(Cl)cc1	7%
SMILES	VDR inh
COc1cc([N+](=O)[O-])ccc1NC(=O)C[n+]1ccccc1	9%
CCOC(=O)c1ccc(NC(=O)CN2C(=O)C(CC)SC(CC)C2=O)cc1 (configuration not stated)	-19%
COc1ccccc1NC(=O)c1c(C)cc(C)nc1SCC(=O)Nc1ccc(C)c(C)c1	5%
CS(=O)(=O)N(Cc1ccc(C(=O)NC2CCCC2)cc1)c1ccccc1	-5%
COc1ccc(OC)c(-c2cc(C(=O)Nc3c(C)nn(Cc4ccccc4C)c3C)no2)c1	14%
CCC(=O)NCC(c1ccco1)N1CCN(c2ccc(OC)cc2)CC1 (configuration not stated)	-14%
Cc1ccc(C)c(N(C(=O)CS(=O)CC(=O)Nc2ccc3c(c2)OCO3)C(C)C(=O)NC2CCCC2)c1 (configuration not stated)	14%
O=P(O)(O)CCP(=O)(c1ccccc1)c1ccccc1	6%
Cc1cc(NS(=O)(=O)c2ccc(NC(=S)NC(=O)c3ccc(F)cc3)cc2)no1	-11%
COc1ccc(N2C(=O)CNC2=S)cc1	-3%
Cc1cccn2c(=O)c3cc(C(=O)N4CC(C)CC(C)C4)sc3nc12 (configuration not stated)	-25%
COc1ccc(C(=O)Nc2cc(=O)[nH]c3ncnn23)cc1	3%
O=C1c2ccccc2C(O)(Cc2ccccc2)N1Cc1ccco1 (configuration not stated)	-4%
CCOC(=O)c1c(CN2CCN(CCO)CC2)n(-c2ccccc2)c2cc(Br)c(O)cc12	3%
Cc1ccc(NC(=O)CN(C)C(=O)c2ccc(Cl)c(S(=O)(=O)NCc3ccco3)c2)cc1	8%
CCOc1ccc(NC(=O)CCn2c(-c3ccc(F)cc3)cc(C(C)=O)c2C)cc1	10%
COc1ccc(Br)cc1C(=O)Nc1ccc(-c2nc3cc(Cl)ccc3o2)cc1	-6%
CC(C)(C)[C@H]1C=C(C(N)=O)O[C@@H](OCCCCO)C1	-13%
COc1ccc(CNC(=O)c2c(C)oc3c2C(=O)c2ccccc2C3=O)cc1	-20%
COc1cccc(CNC(=O)c2cccnc2Sc2ccc(Cl)cc2)c1	-4%
COc1ccc(CCC(=O)N/N=C/c2ccc3c(c2)OCO3)cc1	-10%
O=C1CC(c2ccc(Cl)cc2)CC(O)=C1C=NCCO (configuration not stated)	-19%
COc1cc(Cl)c(C)cc1NC(=O)c1cc2ccc3cccnc3c2[nH]1	15%
Oc1c(C(c2ccccc2F)N2CCN(Cc3ccccc3)CC2)sc2nc(-c3ccco3)nn12 (configuration not stated)	-2%
CCCCn1c(N)c(N(CC)C(=O)c2ccccc2C(F)(F)F)c(=O)[nH]c1=O	7%
SMILES	VDR inh
O=C(O)COCC(=O)NC1CCN(Cc2ccccc2)CC1	22%
Cc1cc2c(cc1S(=O)(=O)CCC(=O)N1CCCCC1C)OCC(=O)N2 (configuration not stated)	8%
CC(=O)c1nn(-c2ccc(Cl)cc2)cc1C(=O)c1ccc(C)cc1	-9%
COc1ccc(NS(=O)(=O)c2cc(NC(=O)COc3ccc(OC)cc3)ccc2N2CCOCC2)cc1	9%
CCC1CCCCN1CCCNC(=O)C1CC(=O)N(CCc2ccccc2)C1 (configuration not stated)	-7%
CC(=O)Nc1ccc(S(=O)(=O)N2CCC(n3c(C)nc4cccnc43)CC2)cc1	17%
CN1C(=O)/C(=C/c2cccc(Cl)c2)Sc2ccc(C(=O)N3CCOCC3)cc21	7%
CCOC(=O)N1CCC(Nc2c(-c3ccccc3)c(=O)c2=O)CC1	14%
O=C(NCCc1ccccc1)C(=O)Nc1ccc([N+](=O)[O-])cc1	-7%
Cc1cccc(N2C(=O)CC(Sc3nc(C)cc(C)n3)C2=O)c1 (configuration not stated)	-5%
COc1ccc(CCNCc2c(C(=O)O)c(C)n(Cc3cccc(C)c3)c2C)cc1OC	3%
O=C(NNS(=O)(=O)c1ccc(F)cc1)c1cnccn1	0%
COCCN1C(=O)N[C@@H](c2ccccc2)C(C(=O)OC)=C1C	1%&-2%
C/C(N)=C(/C#N)C(=O)CSc1cc(Cl)ccc1Cl	-2%
CCNc1c(C(=O)O)ccc2c1C(=O)c1ccccc1C2=O	-1%
COCCNC(=O)CSCc1nc(-c2ccc(SC)cc2)oc1C	25%
CCN1C(=O)C(Cc2nc3ccccc3c(=O)n2-c2ccc(OC)cc2)c2ccccc21 (configuration not stated)	8%
CCc1nc(SCc2nnc(-c3ccc(C)cc3)o2)c2c(C)c(C)sc2n1	14%
Cc1cc(NC(=O)c2ccc3c(c2)C(=O)N(C2CCCCC2)C3=O)no1	8%
COc1ccc(NC(=O)CO/N=C/C(=O)Nc2ccccc2C)c([N+](=O)[O-])c1	-3%
O=C(Nc1cccc(Br)c1)c1cc(-c2ccc3c(c2)OCCO3)on1	4%
COCCCNCCCCOc1cccc(Br)c1	-11%
CCC(C)NC(=O)c1cc2c(=O)n3ccccc3nc2s1 (configuration not stated)	12%
COc1ccc(C(=O)O/N=C(\N)Cc2ccc(Cl)cc2)cc1OC	-3%
O=C(Nc1ccc2oc(-c3ccncc3)nc2c1)c1ccccc1Cl	-3%

The final 7 entries of the section before open the next one:
SMILES	VDR inh
Cc1cc(NC(=O)c2ccc3c(c2)C(=O)N(C2CCCCC2)C3=O)no1	8%
COc1ccc(NC(=O)CO/N=C/C(=O)Nc2ccccc2C)c([N+](=O)[O-])c1	-3%
O=C(Nc1cccc(Br)c1)c1cc(-c2ccc3c(c2)OCCO3)on1	4%
COCCCNCCCCOc1cccc(Br)c1	-11%
CCC(C)NC(=O)c1cc2c(=O)n3ccccc3nc2s1 (configuration not stated)	12%
COc1ccc(C(=O)O/N=C(\N)Cc2ccc(Cl)cc2)cc1OC	-3%
O=C(Nc1ccc2oc(-c3ccncc3)nc2c1)c1ccccc1Cl	-3%
O=C(COc1ccccc1)Nc1nnc(-c2ccc3c(c2)CCCC3)o1	-27%
Cc1ccccc1NC(=O)C1CCCN(S(=O)(=O)c2cnc[nH]2)C1 (configuration not stated)	-5%
COc1ccc2c(c1)C(=O)C(=O)N2CC1COc2ccccc2O1 (configuration not stated)	?
COc1cc(OC)c(NC(=O)CCCn2nc(C)c3c(C)n(-c4ccccc4)nc3c2=O)cc1Cl	4%
C[C@H]1CN([C@@H](C)CO)C(=O)Cc2cc(NC(=O)C3CC3)ccc2O[C@H]1CN(C)Cc1ccc(Oc2ccccc2)cc1	-8%
COC(=O)c1cc2oc3ccccc3c2n1Cc1nc(-c2ccccc2Cl)oc1C	2%
COc1ccccc1N1C(=O)c2ccccc2NC1C(OC)OC (configuration not stated)	-21%
O=C(NCc1ccco1)C1CCCN1C(=O)Nc1ccccc1 (configuration not stated)	12%
CCN(CC(=O)Nc1cccc(S(=O)(=O)N(C)c2ccccc2)c1)Cc1cccs1	-7%
COc1cccc(C(=O)NCC(c2ccc(N(C)C)cc2)N2CCOCC2)c1OC (configuration not stated)	0%
CCOc1ccc(C(=O)Nc2ccc(C(=O)OCc3cc(=O)n4c(C)csc4n3)cc2)cc1	-1%
O=C(CC(=O)NN=C1CCCC1)NCCc1ccccc1	-23%
O=C(CNc1cc(S(=O)(=O)N2CCOCC2)ccc1NCC1CCCO1)Nc1cccc(F)c1 (configuration not stated)	-19%
COc1ccc(C2=NC(c3ccccc3)=Nc3ccc(C)cc3N2)cc1	-10%
Cc1nc(-c2cccs2)sc1C(=O)O	60%[activator]
CC(C)(C)OC(=O)N1CCC(c2c(C(=O)Nc3ccc4c(c3)OCCO4)cnn2-c2ccccc2)CC1	15%
O=C(N[C@H]1C/C=C\C[C@H](CC(=O)N(CCO)Cc2ccccc2)C(=O)N[C@@H](c2ccccc2)COC1=O)OCC1c2ccccc2-c2ccccc21	-17%
O=C(O)CCN1C(=O)S/C(=C\c2cccnc2)C1=O	5%
COc1ccc(NC(=O)C2CCCN(c3ncccn3)C2)cc1 (configuration not stated)	17%
O=C(NC(=S)Nc1ccc2oc(-c3cccnc3)nc2c1)c1cccc(Cl)c1	20%
Cc1ccc(OCC(=O)N2CCN(c3nnc(-c4ccc(C)cc4)c4ccccc34)CC2)cc1	-12%
O=C(Cc1ccccc1)Nc1cc(C(=O)c2ccccc2)ccc1N1CCOCC1	-10%
CC(=O)Nc1ccc(S(=O)(=O)N2CCC(C(=O)NCCC(=O)NCc3ccncc3)CC2)cc1	-17%
CCN(CC)CCSc1nc(O)c(-c2ccccc2)c(=O)n1-c1ccccc1	-5%
O=C(C1CCN(S(=O)(=O)c2ccccc2)CC1)N1CCOCC1	16%

Reformatted as a markdown table: 7 of the compounds above
| SMILES | VDR inh |
| --- | --- |
| Oc1c(C(c2ccccc2F)N2CCN(Cc3ccccc3)CC2)sc2nc(-c3ccco3)nn12 (configuration not stated) | -2% |
| O=C(CNc1cc(S(=O)(=O)N2CCOCC2)ccc1NCC1CCCO1)Nc1cccc(F)c1 (configuration not stated) | -19% |
| O=C(COc1ccccc1)Nc1nnc(-c2ccc3c(c2)CCCC3)o1 | -27% |
| COc1cccc(C(=O)NCC(c2ccc(N(C)C)cc2)N2CCOCC2)c1OC (configuration not stated) | 0% |
| O=C(CC(=O)NN=C1CCCC1)NCCc1ccccc1 | -23% |
| COc1ccc(C(=O)COC(=O)CN2C(=O)NC(C)(C)C2=O)cc1OC | 0% |
| CC(NS(=O)(=O)c1cc(C(F)(F)F)ccc1Cl)C(=O)N(C)C1CCN(C)CC1 (configuration not stated) | -6% |

Other compounds
SMILES	VDR inh
CCC(=O)N1CCc2cc(Br)cc(S(=O)(=O)NCCc3cccc(C)c3)c21	-12%
CCOC(=O)N1CCN(C(=O)CN(c2ccc(OC)c(OC)c2)S(C)(=O)=O)CC1	-17%
O=C(CCN1CCN(c2ccccc2F)CC1)Nc1ccccc1Cl	-2%
COc1ccc(-c2csc3ncnc(N4CCN(S(=O)(=O)c5cccc(C(F)(F)F)c5)CC4)c23)cc1	-20%
CCc1sc(C(=O)Nc2cccnc2)cc1Br	6%
O=C(Nc1nnc(-c2ccco2)o1)c1ccc(Cl)s1	2%
O=C(Nc1nccs1)c1cnccn1	13%
CC(=O)c1ccc(NC(=S)NC(=O)/C=C/c2ccccc2)cc1	10%
COc1ccccc1OCCSc1nc2ccccc2n1CC(N)=O	-2%
COc1ccc(NC(=O)CSc2nnc(-c3ccccc3F)n2C2CC2)cc1S(N)(=O)=O	2%
Cc1ccc([N+](=O)[O-])cc1S(=O)(=O)N1CCn2cccc2C1c1ccccc1F (configuration not stated)	-1%
COc1ccc2[nH]c3c(=O)n(CCCC(=O)NC4CCC(C)CC4)c(=S)[nH]c3c2c1 (configuration not stated)	15%
COc1ccc(C(CNC(=O)Cc2ccccc2Cl)N2CCCCC2)cc1 (configuration not stated)	-5%
CC(C)c1ccc(NS(=O)(=O)c2ccc3[nH]cc(C(=O)NC4CCCCC4)c(=O)c3c2)cc1	-4%
CN(C)CCCN(Cc1ccccc1)C(=S)Nc1cccc(C(F)(F)F)c1	-7%
Cn1c(=O)c(-c2ccccc2)nn2c3ccccc3nc12	-12%
CC(C)c1ccc(NC(=O)C2CCCN(S(=O)(=O)c3cccnc3)C2)cc1 (configuration not stated)	-11%
Cc1c(O)c(CN2CCCC2)cc2c1oc(=O)c1ccccc12	8%
Cc1ccc(C(=O)N2CCN(c3ccc(NC(=O)c4cccnc4)cc3)CC2)cc1	-7%
